From PubChem
NPYLR7 ag: mosquito NPYLR7 agonism | HEK293T NPYLR7/Galpha15, GCaMP6s calcium fluorescence | activation, % at 10 µM | actives 0.15% (n = 270,000) | AID 1259423; in the data active = activation above about 40%;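 note: 0% = vehicle and 100% = reference agonist at the receptor; some compounds past the cut are filed as inactive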
NPYLR7 ag max-min: further read-out of NPYLR7 ag, marked with its call; activation, %; measured here: Max-Min RFU normalised activation; some inactives read as strong as hits;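 span of the calcium signal over five minutes; 0% = vehicle and 100% = native peptide agonist; compound fluorescence can raise it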
The depositor's hits bear a star; & = joins results of further samples. A portion of the library; rates above refer to the full screens.

SMILES	NPYLR7 ag	NPYLR7 ag max-min
C=CCNc1nc(NCc2ccc(NC(C)=O)cc2)c2sc(-c3ccccc3)cc2n1	7	2
CC(C)c1nccn1C(C)C(=O)N1CCc2ccccc2C1 (centres undefined)	-1	18
CNc1cc(C(=O)N2CCC(c3nc4c(C)cccc4[nH]3)CC2)ccn1	-10	-12
CCc1ccc(N2CCN(Cc3ccc(F)cc3F)C(C)C2=O)cc1 (centres undefined)	2	7
CCC(C)N(Cc1cccn1Cc1cccc(OC)c1)C(=O)CN(CCC(C)C)C(=O)c1ccc(F)cc1 (centres undefined)	-7	-6
O=c1oc2ccccc2n1CNC1(c2ccc(Br)cc2)CCC1	14	12
O=C(c1ccco1)N1CCSC12C(=O)N(Cc1ccccc1Cl)c1ccc(F)cc12 (centres undefined)	3	8
C[C@H](C(=O)N[C@H](CO)c1ccccc1)N1Cc2ccc(-c3ccnn3C)nc2C1=O	7	16
CC(c1ccccc1)N(C)C(=O)C=Cc1cc2c(cc1[N+](=O)[O-])OCO2 (centres undefined)	3	-1
NC(=O)CSc1nc(=O)n(Cc2ccncc2)c2c1CCC2	-1	-3
c1cc2c(cn1)CCCN2	-2	3
COc1ccc(-c2ccnc(SCc3ccc(C(=O)N4C5CCC4CC(Oc4ccccc4C(C)C)C5)cc3)n2)cc1 (centres undefined)	8	-3
Cc1ccc(C(=O)Nc2ccc(N3CCCC3)c(C(=O)NCc3ccc(F)cc3)c2)cc1	8	12
CCOC(=O)C1CCCN(C(=O)c2nn(-c3cc(C)cc(C)c3)c(=O)n(Cc3cccc(Cl)c3)c2=O)C1 (centres undefined)	4	9
C=CCN1C(=S)N(c2ccc(Cl)cc2)C2CS(=O)(=O)CC21 (centres undefined)	-3	-4
CCc1nc(C)sc1CNC(C)Cn1ccnc1 (centres undefined)	1	1
COc1ccc(-c2nnc(SCc3cc4c(cc3Br)OCO4)o2)cc1	-3	8
N#CCCCN1CCC2(C=Cc3ccccc32)CC1	0	34
N#Cc1ccc(Cl)cc1S(=O)(=O)Nc1ccncc1	-8	-8
CCOC(=O)C1CCCN(Cc2nc(NCc3cccs3)c3ccccc3n2)C1 (centres undefined)	0	-8
O=C(Nc1cccc(C(F)(F)F)c1)N1CCN(c2cc(-n3ccnc3)ncn2)CC1	10	11
CC(O)CN1CCN(CC(=O)N2CCc3ccccc3C2)CC1 (centres undefined)	1	1
CN(CC(=O)NC(C)(C)C)C(=O)CSc1ccccc1C(=O)O	6	3
Cc1ccc(C(=O)N(CCCN(C)C)CC2CCN(C3Cc4ccccc4C3)CC2)s1	6	2
O=C(c1csc(CSc2nnc(Cc3ccccc3)n2-c2cccc(C(F)(F)F)c2)n1)N1CCN(C/C=C/c2ccccc2)CC1	14	16
CC1(C)OCC(CNC(=O)CCCCC2CCSS2)O1 (centres undefined)	-5	-11
CC(C)(C)n1ncc2c(=O)n(NC(=O)c3ccco3)cnc21	0	-4
CCOc1ccc(-n2c(CNC(=O)c3cccs3)nnc2SCC(=O)N2CCc3ccccc32)cc1	6	7
CCC(NS(=O)(=O)c1ccc(S(C)(=O)=O)cc1)C12CC3CC(CC(C3)C1)C2 (centres undefined)	-2	5
CCOC(=O)C1(Cc2ccccc2Cl)CCN(C(=O)c2cnsn2)CC1	-4	-9

Arranged by molecular weight (smallest number first): part of the list above
SMILES	NPYLR7 ag	NPYLR7 ag max-min
c1cc2c(cn1)CCCN2	-2	3
CCc1nc(C)sc1CNC(C)Cn1ccnc1 (centres undefined)	1	1
N#Cc1ccc(Cl)cc1S(=O)(=O)Nc1ccncc1	-8	-8
CC(C)c1nccn1C(C)C(=O)N1CCc2ccccc2C1 (centres undefined)	-1	18
CC(C)(C)n1ncc2c(=O)n(NC(=O)c3ccco3)cnc21	0	-4
NC(=O)CSc1nc(=O)n(Cc2ccncc2)c2c1CCC2	-1	-3
CC(O)CN1CCN(CC(=O)N2CCc3ccccc3C2)CC1 (centres undefined)	1	1
CC1(C)OCC(CNC(=O)CCCCC2CCSS2)O1 (centres undefined)	-5	-11
CN(CC(=O)NC(C)(C)C)C(=O)CSc1ccccc1C(=O)O	6	3
C=CCN1C(=S)N(c2ccc(Cl)cc2)C2CS(=O)(=O)CC21 (centres undefined)	-3	-4
CCc1ccc(N2CCN(Cc3ccc(F)cc3F)C(C)C2=O)cc1 (centres undefined)	2	7
CNc1cc(C(=O)N2CCC(c3nc4c(C)cccc4[nH]3)CC2)ccn1	-10	-12
CC(c1ccccc1)N(C)C(=O)C=Cc1cc2c(cc1[N+](=O)[O-])OCO2 (centres undefined)	3	-1
O=c1oc2ccccc2n1CNC1(c2ccc(Br)cc2)CCC1	14	12
CCOC(=O)C1(Cc2ccccc2Cl)CCN(C(=O)c2cnsn2)CC1	-4	-9
C[C@H](C(=O)N[C@H](CO)c1ccccc1)N1Cc2ccc(-c3ccnn3C)nc2C1=O	7	16
CCC(NS(=O)(=O)c1ccc(S(C)(=O)=O)cc1)C12CC3CC(CC(C3)C1)C2 (centres undefined)	-2	5
O=C(Nc1cccc(C(F)(F)F)c1)N1CCN(c2cc(-n3ccnc3)ncn2)CC1	10	11
COc1ccc(-c2nnc(SCc3cc4c(cc3Br)OCO4)o2)cc1	-3	8
C=CCNc1nc(NCc2ccc(NC(C)=O)cc2)c2sc(-c3ccccc3)cc2n1	7	2
Cc1ccc(C(=O)N(CCCN(C)C)CC2CCN(C3Cc4ccccc4C3)CC2)s1	6	2
O=C(c1ccco1)N1CCSC12C(=O)N(Cc1ccccc1Cl)c1ccc(F)cc12 (centres undefined)	3	8
CCOc1ccc(-n2c(CNC(=O)c3cccs3)nnc2SCC(=O)N2CCc3ccccc32)cc1	6	7
CCOC(=O)C1CCCN(C(=O)c2nn(-c3cc(C)cc(C)c3)c(=O)n(Cc3cccc(Cl)c3)c2=O)C1 (centres undefined)	4	9
O=C(c1csc(CSc2nnc(Cc3ccccc3)n2-c2cccc(C(F)(F)F)c2)n1)N1CCN(C/C=C/c2ccccc2)CC1	14	16

Next results:
SMILES	NPYLR7 ag	NPYLR7 ag max-min
O=C(CC1c2ccccc2CCc2ccccc21)NCC1COCCO1 (centres undefined)	2	-2
Cc1cc2nnc(SC(C)C(=O)NC(C)(C)C)n2c2ccccc12 (centres undefined)	8	1
O=C(Nc1ccc(Oc2ccccc2)cc1)c1cccnc1Oc1cccc([N+](=O)[O-])c1	-12	-19
Cc1ccccc1C(=O)Oc1coc(CSc2nccn2C)cc1=O	-6	-6
COCCn1c(C)cc(O)c(C(c2cccc(Cl)c2)N2CCN(CCO)CC2)c1=O (centres undefined)	11	4
Cc1cc(C)c(S(=O)(=O)N2CCN(C(=O)CCc3ccsc3)CC2)c(C)c1	5	3
COc1ccccc1-c1nc2cc(C)ccn2c1NC(=O)c1cc(Cl)cc(Cl)c1	0	4
CN1CC2(CCN(Cc3nccn3C)CC2)CC1C(=O)O (centres undefined)	16	14
CSC1=N/C(=C\c2cc(Br)ccc2OCC(=O)O)C(=O)S1	1	-2
COc1ccc(CC(=O)Nc2cc(-c3cccs3)nn2-c2nc(C(C)C)cc(=O)[nH]2)cc1	-1	-5
O=C(O)C1CCNCC1	3	-31
O=S(=O)(c1cccc(C(F)(F)F)c1)N1CCN(c2nc(-c3ccccc3)nc3ccccc23)CC1	4	19
Nc1cccc(-n2c(CCCO)nc3ccccc32)n1	13	8
Cc1ccc(-n2ncc3c(=O)[nH]c(-n4nc(C)cc4NC(=O)c4cc5ccccc5o4)nc32)cc1	-1	-6
CCc1nnc2n1CCN(C(=O)c1cccc3c1OCC(=O)N3)C2	0	-1
CCN1CCN(C(=O)CCN(c2nc(C3CC3)nc3cc(Cl)ccc23)C2CC2)CC1	5	2
CCCC1SCCN1C(=O)c1c(Br)c2ccccc2n1C (centres undefined)	4	3
Cc1cn2c3c(=O)n(C)c(=O)n(C)c3nc2n1CCCN1CCC(Cc2ccccc2)CC1	5	1
Cc1cc2oc3c(c(=O)c2cc1Cl)C(c1ccccn1)N(c1ccccn1)C3=O (centres undefined)	1	26
Cc1ccc(N(Cc2c(C)noc2C)Cc2c(C)noc2C)cc1C	4	3
CC1(C)[C@@H]2CC[C@]1(C)C(=O)C2	-7&-6	-11&-10
Cc1cc(C)nc(N(C#N)CN2C(=O)c3ccccc3S2(=O)=O)n1	1	2
Fc1ccc(Oc2ccc3c(-c4ccccn4)noc3n2)cc1	24	13
Cc1ccc(N2CCn3c2nc2c3c(=O)n(CC(=O)C(C)(C)C)c(=O)n2C)cc1Cl	2	9
Nc1cc(-c2ccc(Cl)c(Cl)c2)nn1-c1ccc(C(=O)N2CCCCC2)cc1	-1	-6
CC1=CCC=CC1C(=O)NC1CCc2[nH]c3ccc(Br)cc3c2C1 (centres undefined)	39	25
O=C(c1ccc(-c2ccc(O)cc2)nc1)N1CCC(CCc2ccccc2)CC1	22	8
COc1cn(CC(=O)NCc2ccc(F)cc2)c(CSc2nnc(C)s2)cc1=O	-7	-11
N#Cc1ncn(-c2nc(-c3ccncc3)nc3c2CCC3)n1	10	6
O=[N+]([O-])c1ccc(SCc2csc(-c3ccc(C(F)(F)F)cc3)n2)nc1	-12	1
CN1CCC(Cn2ccnc2-c2ccc3occc3c2)(N(C)C)CC1	8	6
CC(C(=O)NC(C)(C#N)C(C)C)N1CCC(c2ccccc2)C1 (centres undefined)	5	4
CC(=O)CC(c1ccccc1)c1c(O)c2ccccc2oc1=O (centres undefined)	-1&-9&-12	-7&-16&-17
C=CCN(CC(=O)N(Cc1ccc(F)cc1)Cc1sccc1C)C(=O)Nc1c(Cl)cccc1Cl	2	0
O=C(NCCC1=CCCCC1)c1cc(-c2cccs2)n(C2CCS(=O)(=O)C2)n1 (centres undefined)	6	4
O=C(Cn1nc2ccccc2n1)NC1CC(=O)N(CCc2ccccc2)C1 (centres undefined)	22	9
COC1CCC(N(C)C(=O)CCCc2cc(C)sc2C)CC1 (centres undefined)	1	-1
CNC(=O)[C@@]12O[C@H]3COC(C)(C)O[C@H]3[C@@H]1OC(C)(C)O2	10	2
CCCCn1c(=S)nnc2c3ccccc3[nH]c21	2	8
OC(c1ccccc1)(c1ccccc1)c1ccc(CN(CCN2CCOCC2)Cc2ccc(F)cc2)o1	3	0
COC(=O)c1cc(S(N)(=O)=O)ccc1NCC1(c2ccccc2)CCC1	0	-2
Cc1ccc(CNc2cc(C)nc(C(C)C)n2)cc1	6	3
CCCN(CC(=O)N(CCc1ccc(OC)c(OC)c1)Cc1ccc(C)o1)C(=O)c1ccco1	-5	-3
CC(=O)c1cccc(CN2CCC(C(=O)Nc3ccc(-c4cccc(C)c4)cc3)CC2)c1	7	1
O=C(CCN(CCCN1CCOCC1)c1nc(C2CC2)nc2ccccc12)Nc1ccccc1	12	5
COc1cccc(CC(=O)N(Cc2nc3cc(C)ccc3o2)Cc2ccccc2Cl)c1	-1	-12
COCCn1c(O)c(C=NCC(OC)OC)c(=O)[nH]c1=S	-9	-14
Cc1n[nH]c(C)c1CCCN(C)C(=O)CC1C(=O)NCCN1C1CCCC1 (centres undefined)	-7	-8
CCc1cc(=O)n(CC(=O)Nc2cc(OC)ccc2OC)c(-n2nc(C)cc2C)n1	0	-2
Cc1nc2ncnn2c(C)c1CCC(=O)NC1CCCN(CCc2ccccc2)C1 (centres undefined)	11	7
COc1ccc(Cc2nc3ccc(C(=O)N4CCSCC4)cc3o2)cc1OC	14	7
CN(CCO)c1nc(-c2ccsc2)nc2sc3c(c12)CCCC3	-6	-6
CCCOc1ccc2c(c1)OCC(C(=O)O)=C2	0	0
CN(C(=O)CSc1ncnc2sc3c(c12)CCC3)C1CCS(=O)(=O)C1 (centres undefined)	0	-2
CCC(C(=O)N1CCC2(CC1)NC(=O)c1c(F)cccc1N2)c1ccccc1 (centres undefined)	-1	-1
Cn1c2ccccc2n2c3cnc(C(C#N)C#N)nc3c(=O)c(C#N)c12	-3	-5
NCc1ccc(S(=O)(=O)N2CCC(O)CC2)cc1	7	2
CCCCCOc1ccc(C(=O)Nc2cccc(Oc3ccccc3)c2)cc1OCCCCC	-7	-12
Cc1ccc2c(c1)ncc[n+]2CC(=O)c1ccc(Cl)cc1Cl	11	6
Cc1ccc(Cc2nc(CSc3nc(-c4ccccc4)cs3)cs2)cc1	3	-2

Additional structures
SMILES	NPYLR7 ag	NPYLR7 ag max-min
CCCCCn1c(=O)c2c(nc3n2CCN3c2ccc(OC)cc2)n(C)c1=O	-4	-7
COCCn1c(SCc2ccccc2C)nc2c([nH]c3ccccc32)c1=O	-3	-4
CCc1cccc(NC(=O)N(Cc2ccc(OS(=O)(=O)CC)cc2)CC(C)C)c1	7	17
Cc1cc(C)cc(Cn2c(C)c(C(=O)NCc3ccc(C#N)cc3)sc2=O)c1	14	10
CCSCC(C)NC1CCN(c2cccc(C)c2)CC1 (centres undefined)	19	9
CCCCCOC(=O)C1=C(C)N(C)C(=O)NC1c1ccc(OCc2ccccc2)cc1 (centres undefined)	5	0
CCc1nc2c(OCc3ccccc3C(=O)OC)cccn2c1N(C)C(=O)Nc1ccccc1OC	6	-2
COc1ccc(NC(=O)CSc2nc(=O)n(CCN(C)C)c3c2CCC3)c(OC)c1	-1	-8
COc1cccc(C=NN2CCN(C(c3ccccc3)c3ccccc3)CC2)c1O	-6	-13
COc1ccc(C2CCCN2C(=O)Nc2ccccc2N2CCN(C)CC2)cc1 (centres undefined)	1	-3
NC1=NC(=O)/C(=C\c2ccc(-c3ccc(Cl)c([N+](=O)[O-])c3)o2)S1	3	-6
O=C(NC1CC1)C1CCN(S(=O)(=O)N2CCCCC2)CC1	9	4
Cc1cc(N2C(=O)c3oc4ccc(Br)cc4c(=O)c3C2c2ccccc2)no1 (centres undefined)	4	3
O=C(OC1c2ccccc2-c2ccccc21)C1COc2ccccc2O1 (centres undefined)	0	-3
CCCCN(C(=O)c1[nH]c2c(c1C)C(=O)CCC2)C1CCS(=O)(=O)C1 (centres undefined)	4	2
O=C(NCc1ccc(F)c(Cl)c1)c1ccc(-c2cc(-c3cccc(C(F)(F)F)c3)n[nH]2)cc1	5	-1
CCN(C(=O)Cn1cnc2c1c(=O)n(C)c(=O)n2C)C1CCS(=O)(=O)C1 (centres undefined)	8	10
